Compound activity deposited in PubChem BioAssay by National Center for Advancing Translational Sciences (NCATS).
Cruzain noTriton: inhibitors of Trypanosoma cruzi cruzain without detergent; P25779; purified cruzain, Z-FR-AMC fluorescence, no detergent; Potency, µM, for the others: max response, negative = inhibition, most hits filed as inhibitors; hit rate 2.3% among 200,000; AID 1476; active = well fitted curve in the direction sought with a large enough effect; inconclusive = small, poorly fitted or top-dose-only effect, or another doubt; inactive = no such curve, though single readings can be large; an effect the other way counts as inactive or inconclusive;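 also: plate controls were enzyme without inhibitor for no effect and buffer without enzyme for full effect; nearly all actives have a fitted effect of over 40% in size; top concentration of the series not given in the record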
Target sequence (P25779 123-467 limits assumed): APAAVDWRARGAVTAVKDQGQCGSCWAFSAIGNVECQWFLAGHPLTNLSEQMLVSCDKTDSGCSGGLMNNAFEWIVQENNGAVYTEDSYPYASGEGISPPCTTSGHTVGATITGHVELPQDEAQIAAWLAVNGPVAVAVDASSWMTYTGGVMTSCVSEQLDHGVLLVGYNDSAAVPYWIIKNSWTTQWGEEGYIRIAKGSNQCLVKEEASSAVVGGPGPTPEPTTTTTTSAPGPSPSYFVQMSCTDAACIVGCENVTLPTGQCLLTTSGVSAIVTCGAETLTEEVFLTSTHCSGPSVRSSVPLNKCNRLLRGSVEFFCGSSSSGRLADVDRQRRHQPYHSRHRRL
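Purified cruzain at 1.5 nM, pre-incubated 15 min with compound at room temperature in 100 mM sodium acetate pH 5.5, 5 mM DTT, 0.00005% Triton X-100. Reaction started with 2 uM Z-FR-AMC; AMC fluorescence increase over 60 s gives rate.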
StopGo reporter: FMDV 2A StopGo reporter, luciferase signal. human cells with a luciferase reporter of 2A StopGo recoding; control for the full effect not named in the record. Potency, µM (highest dose often 57.9 µM), for inactives: at the top dose signal change, negative = less light. hit rate 1.2% among 410,000. AID 1159524; active = well fitted falling curve with a large enough effect; inconclusive = small, poorly fitted or top-dose-only effect; inactive = no such curve, though single readings can be large or run the other way; tested in HEK293T cells; also: % is scaled to controls: 0 for no effect and ±100 for the full control effect; nearly all actives have a fitted effect of over 45% in size; luciferase light after 4 h
NS1 inh: inhibitors of influenza NS1 protein function; hit rate 0.4% among 270,000; AID 2326; S. cerevisiae slowed by influenza A NS1, growth recovery by OD600; Potency, µM (series often up to 46.1 µM), without a hit: at the highest dose activity, positive = more growth; also: actives are rising curves; nearly all actives have a fitted effect of over 50% in size
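In this qHTS, NS1 from influenza A is expressed in budding yeast, where it slows growth. Cells are switched from glucose to 2% galactose medium (pH 6.0, -URA), treated with compound, and growth recovery is read at OD600.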
RE007 growth inh: less growth of the S. pombe RE007 Vpr strain | S. pombe RE007 Vpr strain, BacTiter-Glo ATP luminescence, 24 h; control for the full effect not named in the record | Potency, µM (series often up to 92.2 µM), for the others: at the highest dose activity change, negative = less growth | hit rate 0.21% among 360,000; active = well fitted falling curve with a large enough effect; inconclusive = small, poorly fitted or top-dose-only effect; inactive = no such curve, though single readings can be large or run the other way;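 also: % is scaled to controls: 0 for no effect and ±100 for the full control effect; nearly all actives have a fitted effect of over 50% in size; the assay follows cell death caused by Vpr and the record does not say whether a fall means rescue or toxicity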
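Fission yeast RE007 carrying one integrated HIV-1 vpr copy, seeded at OD 0.01 in PMG+AL medium with 23 nL pinned compound. Grown 24 h at 30 degrees; viability read by BacTiter-Glo luminescence after 5 min.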
SARS PLP yeast: blocks SARS-CoV papain-like protease in a yeast assay. S. cerevisiae expressing SARS-CoV PLpro, growth rescue; control for the full effect not named in the record. Potency, µM (top dose mostly 32.9 µM), inactives show at the highest dose activity, positive = growth rescue. hit rate 0.19% among 330,000; also: 0% is about no effect; nearly all actives have a fitted effect of over 55% in size; growth read by luminescence after 48 h
Lassa entry inh: blocks Lassa virus binding to or entry into cells | hit rate 1.2% among 300,000 | Lassa virus pseudotype entry inhibition, cell reporter; control for the full effect not named in the record | Potency, µM (titrated, usually from 37.9 µM), for inactives: at the top dose activity change, negative = inhibition, hits mostly inhibitors; active means well fitted inhibition curve with a large enough effect; inconclusive means small, poorly fitted or top-dose-only effect, or effect the other way; inactive means flat fitted curve, though single readings scatter; tested in HEK293 cells; also: % is scaled to controls: 0 for no effect and ±100 for the full control effect; nearly all actives have a fitted effect of over 50% in size; luciferase read-out
Cruzain Triton: inhibitors of Trypanosoma cruzi cruzain with detergent | P25779 | purified cruzain, Z-FR-AMC fluorescence, 0.01% Triton | Potency, µM, without a hit: max response, negative = inhibition, usual class: inhibitors | hit rate 0.43% among 200,000 | AID 1478; active = well fitted curve in the direction sought with a large enough effect; inconclusive = small, poorly fitted or top-dose-only effect, or another doubt; inactive = no such curve, though single readings can be large; an effect the other way counts as inactive or inconclusive;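 also: plate controls were neutral wells for no effect and buffer without enzyme for full effect; nearly all actives have a fitted effect of over 40% in size; top concentration of the series not given in the record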
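Cysteine protease activity tested under reducing, mildly acidic conditions (100 mM sodium acetate pH 5.5, 5 mM DTT) plus 0.01% Triton X-100. Cruzain 1.5 nM; substrate Z-FR-AMC 2 uM; 15 min compound preincubation at room temperature.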
MARV entry inh: Marburg virus entry inhibition. Marburg virus pseudotyped entry inhibition, cell reporter; control for the full effect not named in the record; about a third of the inactives were read at about 46 µM. Potency, µM (titrated, usually from 37.8 µM), without a hit: top-dose activity change, negative = inhibition, actives largely listed as inhibitors. hit rate 1.8% among 300,000. AID 540276; active = well fitted inhibition curve with a large enough effect; inconclusive = small, poorly fitted or top-dose-only effect, or effect the other way; inactive = flat fitted curve, though single readings scatter; tested in HEK293 cells; about a fifth of its hits are not listed in these tables; also: % is scaled to controls: 0 for no effect and ±100 for the full control effect; luciferase read-out
Active calls of the source: *; ? = inconclusive; / = not tested or not shown; & = joins results of further samples; [ ] = remark or other dose. Unless noted, calls follow the shape of the dose curve; as a rule, active means well fitted rising curve with a large enough effect; inconclusive means small, poorly fitted or top-dose-only effect; inactive means no such curve, though single readings can be large or run the other way. Potency is read from the fitted curve at half-maximal effect. This is a random part of the collection; any-hit rate near 4.5%.

Fields – Cruzain noTriton, StopGo reporter, NS1 inh, RE007 growth inh, SARS PLP yeast, Lassa entry inh, Cruzain Triton, MARV entry inh
- O=c1[nH]c2ccccc2nc1Cc1ccc(Cl)cc1
 : /, 25%, -12%, 10%, -1%, /, /, -2%[46.1 µM]
- CCC(C)(C)C1CCC2(CC1)NC(=O)N(CC(=O)N(C)CCOc1ccc(Cl)cc1)C2=O (centres undefined)
 : /, -25%, /, 5%, 1%, -11%, /, 0%
- Cc1csc2nc(SCC(=O)Nc3ccccc3F)[nH]c(=O)c12
 : /, -3%, -1%, 10%, -2%, ?, /, -1%[46.1 µM]
- O=C(c1ccc(Cl)c(S(=O)(=O)N2CCCCCC2)c1)N1CCN(CCO)CC1
 : -3%, -16%, 0%, -6%, 6%, 14%, 3.3%, 0%
- Cc1ccccc1NS(=O)(=O)c1cc(C(=O)NCCC2=CCCCC2)ccc1C
 : 0%, /, 23%, -3%, 0%, ?, -4.8%, -45%
- CCC(C)Cn1cnc2c(SCc3ccccn3)nc(N)nc21 (centres undefined)
 : /, 16%, /, -9%, /, 13%[46.1 µM], /, ?
- CC(=O)C1=C(c2ccccc2)NC(=O)NC1c1ccc(O)c(Cl)c1 (centres undefined)
 : /, -18%, 12%, -9%, -3%, -15%[46.1 µM], /, -5%[46.1 µM]
- Cc1cccc(NC(=O)CN2CCCN(S(=O)(=O)c3ccc(Br)s3)CC2)c1
 : -5%, -12%, -47%, -6%, 0%, ?, -3.5%, 4%&-19%
- O=C1CSC(=S)N1N=Cc1c(O)ccc2ccccc12
 : /, -28%, /, -30%, /, -25%[46.1 µM], /, -15%
- CN(CCOc1ccccc1)CC(O)COc1ccccc1 (centres undefined)
 : /, 5%, 9%, -5%, 0%, -18%, /, 0%[46.1 µM]
- N=c1c(C(=O)NCCN2CCOCC2)cc2c(=O)n3ccccc3nc2n1CCCN1CCOCC1
 : /, 28%, 16%, 1%, 2%, -9%[46.1 µM], /, ?
- COc1cccc(NC(=O)COc2ccc(N3CC(C(=O)NCC(C)C)CC3=O)cc2)c1 (centres undefined)
 : 3%, 11%, -4%, 8%, 3%, -8%, 1.6%, 26%&26%
- CCC1(CC)C(=O)N(C)C(=O)NC1=NCc1ccccc1
 : -1%, 0%, 8%, -3%, 8%, 2%, 5.8%, ?
- CCOC(=O)C(C(=O)Nc1ccc(C)cc1)C1CCCCC1 (centres undefined)
 : 2%, ?, -2%, 1%, 1%, -22%, -1.4%, ?
- Cc1ccc(C(=O)Nc2ccccc2C(=O)N2CC3(C)CC2CC(C)(C)C3)cc1 (centres undefined)
 : -2%, -23%, -87%, 1%, -20%, ?, -3.0%, ?
- CCc1nnc(NC2=NCCC2)s1
 : -8%, 16%, -52%, 2%, 9%, -1%, -5.1%, 3%
- CC(=O)Nc1cccc(Oc2ncnc3scc(-c4ccc(C)cc4)c23)c1
 : ?, ?, -15%, 14%, -14%, ?, -11%, -18%
- CN1c2ccccc2C(C)(C)C12CC(c1cccc(S(=O)(=O)N3CCCC3)c1)=NO2 (centres undefined)
 : ?, -24%, -15%, -5%, -20%, 0.52µM*, -2.2%, 0.46µM*
- O=C(N/N=C/c1ccc(C(F)(F)F)cc1)c1ccc(O)cc1
 : /, 6%, /, -1%, ?, ?, /, ?
- CCC(=O)C1CCCN(C(=O)c2ccc(OC)c(OC3CCN(C(C)=O)CC3)c2)C1 (centres undefined)
 : /, -8%, 6%, 2%, -8%, 27%[46.1 µM], /, ?
- CN(c1ccc(C(=O)N2CCCCC2)cc1)S(=O)(=O)c1ccccc1
 : -3%, -5%, 5%, 31%, 3%, ?, 2.2%, ?
- COc1cc(C(C[N+](=O)[O-])c2c(C)[nH]c3ccccc23)ccc1O (centres undefined)
 : 4%, -3%, -11%, -18%, 4%, -4%, -7.8%, 0%
- c1ccc(CN2CCN(C(c3ccccc3)c3nnnn3Cc3ccccc3)CC2)cc1 (centres undefined)
 : 9%, -28%, 5%, -14%, 8%, ?, -1.1%, ?
- Cc1ccc(C)c(N/C(N)=N/c2nc(C)cc(C)n2)c1
 : -6%, ?, 12%, 5%, 5%, -14%, -0.1%, ?
- COc1cc2cc(C(=O)N(C)Cc3ccccc3)[nH]c2cc1OC
 : /, 1%, 4%, 6%, 0%, /, /, /
- COC(=O)/C=C1\SC(=NC(=O)c2cccc(Cl)c2)NC1=O
 : -12%, ?, 12%, 5%, 3%, 31%, 14µM*, -2%
- COc1cccc(CSc2nnc(CSc3nc4nc(C)cc(C)n4n3)s2)c1
 : ?, -27%, -2%, 2%, -15%, -13%, 4.4%, 7%
- CC(=O)c1ccccc1NC(=O)CCN1C(=O)C2CCCCC2C1=O (centres undefined)
 : /, -1%, /, 14%, -2%, 13%, /, -2%
- CCCCCNC(=O)C1CCC(Cn2c(=O)c3sccc3n(CC(=O)NCc3cccc(OC)c3OC)c2=O)CC1 (centres undefined)
 : -14%, 1%, /, /, /, 1%[46.1 µM], 0.0%, 18%[46.1 µM]
- CCn1ccc2cc(S(=O)(=O)N3CCC(C(=O)NCC(C)c4ccccc4)CC3)ccc21 (centres undefined)
 : -13%, -22%, /, /, /, -15%[46.1 µM], -3.5%, /
- COC(=O)C1C2c3ccccc3C(c3ccccc32)C1(C)C(=O)OC (centres undefined)
 : /, -20%, /, -22%, /, ?, /, ?
- CCCS(=O)(=O)NCCc1csc2nc(-c3ccc(OC)cc3)nn12
 : -7%, 2%, /, /, /, 2%[46.1 µM], -2.4%, /
- Cc1cc(O)c(C(=O)/C=C/c2ccccc2Br)c(=O)o1
 : /, 11µM*, ?, -1%, -2%, ?, /, 14%[46.1 µM]
- CCOc1ccccc1CN1C(=O)c2ccccc2C1C(=O)NC1CCCCCC1 (centres undefined)
 : ?, 33%[activator], /, /, /, ?, 6.3%, ?
- O=C(CN1CCN(Cc2ccc3c(c2)OCO3)CC1)Nc1ccc(N2CCOCC2)cc1
 : /, -3%, /, -3%, -2%, 13%, /, -11%[46.1 µM]
- N#CC[C@H](Cc1ccccc1)N1CCN(Cc2ccccc2)CCC1=O
 : /, -15%, 4%, 5%, 3%, /, /, /
- O=C(NCc1ccco1)c1ccc2ccccc2c1
 : 9%, 35%[activator], -16%, -11%, -21%, ?, -8.3%, ?
- O=S(=O)(c1cccc(C(F)(F)F)c1)N1CCC(c2nc3ccccc3[nH]2)CC1
 : /, -19%, 1%, -18%, -13%, -1%, /, ?
- COC(=O)COc1ccsc1C(=O)OC
 : -4%, 7%, -2%, 4%, 9%, 11%, 5.9%, 22%
- CCn1cc(C(=O)NC2CCC(C)CC2)c(=O)c2cc(S(=O)(=O)N3CCCCC3)ccc21 (centres undefined)
 : ?, /, 23%, /, 3%, /, -6.2%, /
- COc1ccc(NS(=O)(=O)c2ccc3c(c2)Cc2ccccc2-3)cn1
 : -2%, /, -105%, 3%, -19%, -9%, -7.6%, -22%
- CCn1c(=S)[nH]c2cc(C(=O)OC)ccc2c1=O
 : -24%, -10%, 1%, -1%, 2%, 4%, 3.5%, 13%
- CC(=O)N1CCc2cc(Br)cc(S(=O)(=O)CCC(=O)N3CCN(c4ccccc4)CC3)c21
 : -1%, 5%, /, /, /, -1%[46.1 µM], 0.4%, 4%[46.1 µM]
- CNc1c(NS(=O)(=O)c2ccc(C3CCCCC3)cc2)c(=O)oc2ccccc12
 : /, 7%, 0%, 5%, 0%, 1%[46.1 µM], /, -14%[46.1 µM]
- CNC(=S)N/N=C/c1cc(C)n(-c2ccc(Cl)c(Cl)c2)c1C
 : 32µM*, 0%, -7%, -16%, -43%, ?, -8.8%, ?
- CN(C(=O)CCc1ccccc1)c1nnc(-c2ccncc2)s1
 : /, ?, 0%, 4%, 10%, ?, /, 6%[46.1 µM]
- Cc1ccc2cc(CN(Cc3ccccc3)Cc3nnnn3C3CCCC3)c(=O)[nH]c2c1
 : -2%, /, -4%, 15%, -7%, -16%, -3.2%, ?
- Cc1ccc2nc(-c3ccc(NC(=O)COC(=O)c4ccco4)cc3)sc2c1
 : ?, -55%, 7%, 8%, ?, 2.2µM*, -2.1%, 1.3µM*
- Cc1cc(C)c(NC(=O)CSc2nc3ccccc3c3nc(-c4ccccc4)nn23)c(C)c1
 : -3%, -5%, /, /, /, 6%[46.1 µM], 4.1%, /
- CSc1ccc(/C=N/NC(=O)c2cccc(O)c2)cc1
 : 3%, -30%, 2%, 9%, -9%, ?, -6.3%, ?
- Cc1ccc2c(c1)nnn2C1CCN(CC(=O)Nc2ccccc2N2CCOCC2)CC1
 : ?, ?, -33%, 8%, 1%, -8%, -3.2%, ?
- Cc1cc(Cl)ccc1NC(=O)CN1C(=O)CSc2ccc(S(=O)(=O)N(C)C)cc21
 : -25%, -22%, /, /, /, -13%[46.1 µM], 0.4%, /
- CSCCC1NC(=O)N(CC(=O)Nc2ccc(-c3ccccc3)cc2)C1=O (centres undefined)
 : /, 14%, -1%, 9%, 0%, /, /, /
- COc1ccc(OCc2nn3c(-c4ccco4)nnc3s2)cc1
 : -7%, ?, -65%, 20%, -3%, -30%, -0.8%, ?
- COCCNC(=O)Cn1cc(C(=S)N2CCOCC2)c2ccccc21
 : /, 13%, 3%, 0%, -1%, 0%[46.1 µM], /, -10%[46.1 µM]
- Cc1ccc(NCc2nnc(SCC(=O)NCc3ccco3)n2CC2CCCO2)cc1Cl (centres undefined)
 : ?, -21%, -7%, 27%, -2%, -1%, 0.6%, -12%&-12%
- O=C1NC2(c3ccccc3)NC(=O)NC2(c2ccccc2)N1 (centres undefined)
 : /, -10%, /, 11%, /, ?, /, -9%
- CCOc1ccc2[nH]c(C(=O)N/N=C/c3cc(OC)c(OC)c(OC)c3)cc2c1
 : /, 0%, 5%, -6%, -1%, ?, /, ?
